Compound activity (PubChem)
Sfp inh: qHTS Assay for Inhibitors of Bacillus subtilis Sfp phosphopantetheinyl transferase (PPTase). Biochemical Sfp PPTase activity, qHTS. actives 3.5% (n = 310,000). Potency, µM, for the others: max response, negative = inhibition, most hits filed as inhibitors. AID 1490, 2009; active = well fitted inhibition curve with a large enough effect; inconclusive = small, poorly fitted or top-dose-only effect, or another doubt; inactive = no such curve, though single readings can be large or run the other way;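 also: the enzyme is Sfp with the accession as filed and its product quenches rhodamine fluorescence; potency is read from the fitted curve at half-maximal effect; 0% = enzyme reaction without inhibitor and -100% = no enzyme wells; top concentration of the series not given in the record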
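After 15 min at room temperature with compound, 15 nM Sfp received 5 uM rhodamine-CoA plus 12.5 uM BHQ-2-ybbR (50 mM Hepes pH 7.6, 10 mM MgCl2). Rate came from the fluorescence difference over 30 min, ex 525/em 598 nm.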
ClpP mod: qHTS Assay for Activators of ClpP | ATP-dependent Clp protease proteolytic subunit (Bacillus subtilis (strain 168)), P80244 | purified B. subtilis ClpP, FRET peptide cleavage, 20 min | Potency, µM (top dose mostly 57.5 µM), without a hit: at the highest dose activity change, negative = active | actives 1.9% (n = 340,000); active = well fitted falling curve with a large enough effect; inconclusive = small, poorly fitted or top-dose-only effect; inactive = no such curve, though single readings can be large or run the other way; also: potency is read from the fitted curve at half-maximal effect; the source files actives as falling curves though it sought activators and does not explain the sign; nearly all actives have a fitted effect of over 65% in size; many hits overshoot -100%
Target sequence (P80244 whole entry, looked up): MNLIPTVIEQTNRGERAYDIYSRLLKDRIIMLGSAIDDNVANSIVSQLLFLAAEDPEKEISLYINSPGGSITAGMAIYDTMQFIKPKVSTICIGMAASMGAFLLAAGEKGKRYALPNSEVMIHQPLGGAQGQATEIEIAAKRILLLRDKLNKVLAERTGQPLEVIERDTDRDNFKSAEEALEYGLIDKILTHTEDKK
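Buffer: 100 mM Tris/HCl pH8, 100 mM KCl, 0.05% low protease BSA, 2.5% glycerol, 0.01% Tween-20. ClpP 10 microg/mL final; 20 min RT; delta FRET normalized to ADEP and DMSO controls.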
gsp ag: qHTS for Agonist of gsp, the Etiologic Mutation Responsible for Fibrous Dysplasia/McCune-Albright Syndrome: qHTS; gsp mutant cells, cAMP HTRF, 30 min; control for the full effect not named in the record; Potency, µM (titrated, usually from 76.9 µM), without a hit: at the highest dose activation (cAMP increase), actives largely listed as activators; actives 0.13% (n = 340,000); AID 624287, 2012; active = well fitted activation curve with a large enough effect; inconclusive = small, poorly fitted or top-dose-only effect, or another doubt; inactive = no such curve, though single readings can be large or run the other way; cell line not stated here;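 also: phosphodiesterase inhibitor Ro 20-1724 added with compounds to block cAMP breakdown; potency is read from the fitted curve at half-maximal effect; nearly all actives have a fitted effect of over 60% in size; about a fifth of the inactives were tested at one dose only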
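Cells in DMEM/10% FBS with G418 were pretreated with compounds in DMSO plus […] (300 uM stock) for 30 min at 37C. cAMP was measured by HTRF (cAMP-d2 plus anti-cAMP antibody-K) after 30 min at room temperature.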
gsp antagonist: qHTS for Antagonists of gsp, the Etiologic Mutation Responsible for Fibrous Dysplasia/McCune-Albright Syndrome: qHTS. gsp-mutant cells, cAMP HTRF, 30 min; control for the full effect not named in the record. actives 0.4% (n = 340,000). Potency, µM (top dose mostly 76.9 µM), for the others: at the top dose activity change, negative = inhibition, most hits filed as inhibitors; active = falling curve of any shape with a large fitted effect; inconclusive = falling curve, mostly with a smaller effect; inactive = flat or rising curve; cell line not stated here;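 also: intracellular cAMP measured with PDE inhibitor Ro 20-1724 present during compound exposure; potency is read from the fitted curve at half-maximal effect; % is scaled to controls: 0 for no effect and ±100 for the full control effect; nearly all actives have a fitted effect of over 65% in size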
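G418-selected cells were plated in DMEM/10% FBS for 16-24 h at 37C, then treated with compounds plus the PDE inhibitor […] (300 uM solution added) for 30 min at 37C. Intracellular cAMP was measured by HTRF after 30 min lysis at room temperature.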
PINK1 modulator: A Quantitative High throughput Screen to Identify Chemical Modulators of PINK1 Expression. AID 624263, 2012. Potency, µM (titrated, usually from 76.6 µM), for inactives: at the highest dose activation (PINK1 increase), actives largely listed as activators. actives 0.2% (n = 410,000). PINK1 immunofluorescence, high-content cytometry, 24 h; active = well fitted activation curve with a large enough effect; inconclusive = small, poorly fitted or top-dose-only effect; inactive = flat fitted curve, though single readings scatter; cell line not stated here;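 also: potency is read from the fitted curve at half-maximal effect; % of control where 0% means no effect; nearly all actives have a fitted effect of over 65% in size; a mitochondrial uncoupler was the plate control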
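Cells are seeded, rested 12 hours, then given compound at five concentrations or DMSO for 24 hours. After fixation, blocking and antibody staining, PINK1 amount and mitochondrial localization are scored; CCCP serves as control.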
D2 ag: Beta-Arrestin HTS for Positive Allosteric Modulators of the Human D2 Dopamine Receptor: Agonists | D(2) dopamine receptor (Homo sapiens), P14416 | DiscoveRx PathHunter D2 beta-arrestin, luminescence, 90 min; 100% = 57 uM dopamine signal | activation, % (test concentration not listed) | actives 0.084% (n = 360,000); in the data active = activation above about 40%; inconclusive = about 15% to 40%; inactive = below about 15%; also: compound concentration not given in the record; the text of the record calls up to 30% inactive
Target sequence (P14416 whole entry, looked up): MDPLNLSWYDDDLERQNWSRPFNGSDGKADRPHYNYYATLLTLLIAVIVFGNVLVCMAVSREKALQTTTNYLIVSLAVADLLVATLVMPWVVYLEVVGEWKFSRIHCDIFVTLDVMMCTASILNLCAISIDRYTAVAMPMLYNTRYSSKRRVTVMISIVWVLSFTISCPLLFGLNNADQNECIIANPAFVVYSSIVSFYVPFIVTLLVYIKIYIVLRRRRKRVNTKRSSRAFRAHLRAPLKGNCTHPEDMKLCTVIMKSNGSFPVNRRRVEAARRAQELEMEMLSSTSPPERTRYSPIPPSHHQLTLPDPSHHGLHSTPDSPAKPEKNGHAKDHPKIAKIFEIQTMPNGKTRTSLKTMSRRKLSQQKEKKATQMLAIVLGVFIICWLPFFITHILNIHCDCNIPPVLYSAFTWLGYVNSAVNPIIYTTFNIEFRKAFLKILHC
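Agonist mode: compounds alone added to overnight-plated D2 PathHunter cells for 90 min at 37 C, with 57 uM final dopamine (EC100) defining full response. Beta-arrestin recruitment detected by chemiluminescent reagent, read after 1 h at ambient temperature.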
Menin MLL FP FL: qHTS Assay for Inhibitors Targeting the Menin-MLL Interaction in MLL Related Leukemias: Competition With Fluorescein Labeled MLL-derived Peptide; Fluorescence polarization, fluorescein-MLL peptide displacement from menin; 290,000 tested, under 10 active; FP activity change, % at 61.4 µM; inconclusive = falling polarisation curve, or a change in total fluorescence; inactive = total fluorescence flat and polarisation flat or rising; no compound was filed as active; the % refers to the polarisation; negative = inhibition;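 also: % of control where 0% means no effect; inhibitors lower the polarisation; unlabelled MLL peptide was the positive control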
An asterisk follows results filed as active; [ ] = dose if it differs, or a comment.

Results for CC(=O)Nc1ccc(NC(=O)C2CCN(C(=O)c3cccs3)CC2)cc1 ?
Sfp inh: 10%; ClpP mod: 0.8%; gsp ag: -14%; gsp antagonist: -7%; PINK1 modulator: -0.1%; D2 ag: -4.0; Menin MLL FP FL: -5.0

How did CCOc1ccc(S(=O)(=O)N=C(c2ccccc2)N2CCOCC2)cc1 do in these assays?
gsp ag: -8%; gsp antagonist: 11%; PINK1 modulator: -2.0%; D2 ag: 5.3

What do the screens show for `CCNC(=O)NC(=O)C(C)Sc1nnc(COc2ccccc2Cl)o1` (stereo unspecified)?
Sfp inh: -13%; ClpP mod: -1.7%; gsp ag: 1%; gsp antagonist: -1%; PINK1 modulator: 1.1%; D2 ag: -2.5; Menin MLL FP FL: 2.0

Results for N/N=C(/Cc1nc2ccccc2[nH]1)c1ccc([N+](=O)[O-])cc1 ?
Sfp inh: -24%; gsp ag: -2%[15.4 µM]; PINK1 modulator: 3.6%; D2 ag: 8.2; Menin MLL FP FL: -2.4

How did O=c1c2cc(N3CCOCC3)ccc2[nH]c(=S)n1CCCN1CCCCC1 do in these assays?
Sfp inh: 0%; ClpP mod: 1.6%; gsp ag: inconclusive; gsp antagonist: 4%; PINK1 modulator: -2.5%; D2 ag: -1.2; Menin MLL FP FL: -6.8

How did CCOC(=O)c1cc(S(=O)(=O)N2CCOCC2)cn1C do in these assays?
Sfp inh: 17%; ClpP mod: 0.1%; gsp ag: 5%; gsp antagonist: 4%; PINK1 modulator: 0.0%; D2 ag: -3.1

What do the screens show for `COc1ccc(/C=C(/C#N)C(=O)Nc2ccccc2C)cc1C(=O)O`?
Sfp inh: -14%; ClpP mod: 3.8%; gsp ag: -18%; gsp antagonist: 15%; PINK1 modulator: 4.5%; D2 ag: -1.7; Menin MLL FP FL: 4.1

How did CC(=O)N1N=C(N)SC1c1ccc(Cl)c(Cl)c1 (stereo unspecified) do in these assays?
ClpP mod: -2.4%; gsp ag: 10%; PINK1 modulator: -0.3%; D2 ag: -1.6

Results for Cc1ccccc1Nc1ncnc2c1cnn2Cc1ccccc1 ?
Sfp inh: -13%; ClpP mod: -1.7%; gsp ag: -19%; gsp antagonist: 2%; PINK1 modulator: 0.9%; D2 ag: 1.9; Menin MLL FP FL: 1.6

What do the screens show for `Cc1cc(N)n(-c2ncnc3scc(-c4ccc(Cl)cc4)c23)n1`?
Sfp inh: -13%; ClpP mod: -0.1%; gsp ag: -1%; gsp antagonist: -3%; PINK1 modulator: -1.1%; D2 ag: -1.8; Menin MLL FP FL: 4.9

How did CC(=O)NC1C(=O)Nc2c1cccc2C(F)(F)F (stereo unspecified) do in these assays?
Sfp inh: -7%; ClpP mod: 26%; gsp ag: -8%; gsp antagonist: 6%; PINK1 modulator: -0.6%; D2 ag: -11; Menin MLL FP FL: -5.6

How did O=C1CC2c3ccccc3C1C1C(=O)N(CCc3ccccc3)C(=O)C21 (stereo unspecified) do in these assays?
Sfp inh: 13%; ClpP mod: -3.8%; gsp ag: -21%; gsp antagonist: 4%; PINK1 modulator: -1.0%; D2 ag: -1.4; Menin MLL FP FL: 2.7

Results for CCCn1c(N)[n+](CC(=O)c2ccco2)c2ccccc21 ?
Sfp inh: 1%; ClpP mod: -0.4%; gsp ag: -28%; gsp antagonist: -9%; D2 ag: 2.0; Menin MLL FP FL: 0.5

What do the screens show for `CCN1C(=O)[C@H]2[C@@H](c3ccc(-c4ccc(OC)cc4)cc3)N[C@@](CC(C)C)(C(=O)OC)[C@H]2C1=O`?
ClpP mod: 4.3%; gsp ag: 21%; gsp antagonist: -7%; PINK1 modulator: 1.8%; D2 ag: -2.9

What do the screens show for `COc1ccc(S(=O)(=O)N2CCN(C(=O)c3cc(C)oc3C)CC2)cc1`?
Sfp inh: 16%; gsp ag: 7%[15.4 µM]; PINK1 modulator: 0.8%; D2 ag: 1.0; Menin MLL FP FL: -0.1

How did CC(=O)N(/N=C/c1ccc(C)cc1)c1nc(CCl)cs1 do in these assays?
Sfp inh: 10%; gsp ag: 11%; gsp antagonist: -1%; PINK1 modulator: 1.5%; D2 ag: -1.5; Menin MLL FP FL: -7.7

What do the screens show for `O=C(CN1C(=O)NC2(CCCc3ccccc32)C1=O)c1ccccc1F` (stereo unspecified)?
ClpP mod: -1.2%; gsp ag: 11%[15.4 µM]; gsp antagonist: 3%; PINK1 modulator: -0.3%; D2 ag: -1.7

What do the screens show for `COc1cc2c(cc1OC)C(C)=NCC2`?
Sfp inh: -4%; ClpP mod: 3.7%; gsp ag: 19%; gsp antagonist: 13%; PINK1 modulator: 0.9%; D2 ag: 1.3; Menin MLL FP FL: -5.7

What do the screens show for `CCN1CCN(c2ncnc3scc(-c4ccc(C)cc4)c23)CC1`?
Sfp inh: 13%; ClpP mod: 0.7%; gsp ag: -11%; gsp antagonist: 4%; PINK1 modulator: -0.9%; D2 ag: 110*; Menin MLL FP FL: -5.9

How did CCOC(=O)C(Sc1n[nH]c(N)n1)c1ccccc1 (stereo unspecified) do in these assays?
Sfp inh: 13%; ClpP mod: 0.8%; gsp ag: 1%; gsp antagonist: 2%; PINK1 modulator: 0.1%; D2 ag: -2.0; Menin MLL FP FL: -0.5

Results for Cn1c(CNc2nc3ccccc3n2CCN2CCCCC2)nc2ccccc21 ?
Sfp inh: -18%; ClpP mod: -0.1%; gsp ag: -33%[inhibitor]; gsp antagonist: 13%; PINK1 modulator: 1.3%; D2 ag: -3.9; Menin MLL FP FL: 1.9

What do the screens show for `COc1ccc(CSc2ccc(-c3nc4ccccn4c3NCc3ccccc3)cc2OC)cc1`?
ClpP mod: 4.0%; gsp ag: inconclusive; gsp antagonist: 0%; PINK1 modulator: -0.6%; D2 ag: 12

What do the screens show for `COc1cc(OC)c(C(=O)/C=C/c2ccc(OCc3ccccc3)c(OC)c2)c(OC)c1`?
Sfp inh: 5%; ClpP mod: 1.0%; gsp ag: 3%[15.4 µM]; gsp antagonist: 2%; PINK1 modulator: -1.4%; D2 ag: -2.3; Menin MLL FP FL: -2.5

Results for O=C(CN1CCCC1)Nc1nnc(-c2cccs2)s1 ?
Sfp inh: -21%; ClpP mod: -9.2%; gsp ag: 16%[15.4 µM]; gsp antagonist: 2%; PINK1 modulator: -1.0%; D2 ag: -2.8; Menin MLL FP FL: 2.2

Results for COc1ccc(-c2c(C(=O)O)c(C(=O)O)c3n2CCC3)cc1 ?
Sfp inh: 14%; ClpP mod: 3.8%; gsp ag: 14%; gsp antagonist: -1%; PINK1 modulator: 0.1%; D2 ag: 1.9; Menin MLL FP FL: 1.3

How did O=C(NCc1ccncc1)c1cnccn1 do in these assays?
Sfp inh: 19%; ClpP mod: -1.2%; gsp ag: -3%; gsp antagonist: 0%; PINK1 modulator: 0.3%; D2 ag: -1.4; Menin MLL FP FL: 3.1

How did Cc1ccc2c(COC(=O)CC3Sc4ccccc4NC3=O)cc(=O)oc2c1C (stereo unspecified) do in these assays?
Sfp inh: 18%; ClpP mod: -0.4%; gsp ag: -26%; gsp antagonist: 4%; PINK1 modulator: 6.8%; D2 ag: 0.2; Menin MLL FP FL: 1.6

What do the screens show for `CCN1/C(=C/c2ccc3ccccc3[n+]2CCCS(=O)(=O)[O-])C=Cc2cc(C)ccc21`?
Sfp inh: -21%; gsp ag: inconclusive; gsp antagonist: -11%; PINK1 modulator: -0.3%; D2 ag: -6.6; Menin MLL FP FL: inconclusive

How did COc1ccc(CCNC(=O)CCCn2nc(C)n3ccnc3c2=O)cc1OC do in these assays?
Sfp inh: 9%; ClpP mod: -0.9%; gsp ag: inconclusive; gsp antagonist: 18%; PINK1 modulator: -0.2%; D2 ag: -5.1; Menin MLL FP FL: 1.3

How did CCCn1nnc2ccccc2c1=O do in these assays?
Sfp inh: 4%; ClpP mod: -0.8%; gsp ag: 23%; gsp antagonist: 17%; PINK1 modulator: 3.2%; D2 ag: -5.6; Menin MLL FP FL: -0.6

Results for Cc1c(C#N)c2ccccc2n1CC(=O)O ?
Sfp inh: -8%; ClpP mod: -1.0%; gsp ag: 8%; gsp antagonist: 8%; PINK1 modulator: 2.8%; D2 ag: -2.9; Menin MLL FP FL: 1.8

How did CCOC(=O)c1cc(C#N)c(N)nc1C do in these assays?
Sfp inh: 12%; ClpP mod: 22µM*; gsp ag: 35%; gsp antagonist: 12%; PINK1 modulator: 13%[38.3 µM]; D2 ag: 8.3; Menin MLL FP FL: -1.4

Results for NNC(=O)CCn1c2ccccc2c2ccccc21 ?
Sfp inh: 13%; ClpP mod: 2.6%; gsp ag: 35%; gsp antagonist: 12%; PINK1 modulator: 15%; D2 ag: -7.0; Menin MLL FP FL: -8.9

How did Cc1ccc(S(=O)(=O)N2[C@@H](c3ccc(Br)cc3)C(C(=O)O)=CC[C@H]2c2ccc3c(c2)OCO3)cc1 do in these assays?
ClpP mod: 1.0%; gsp antagonist: -8%; PINK1 modulator: 0.2%; D2 ag: 0.7

How did Cc1csc(=O)n1CC(=O)Nc1ccc(C(C)C)cc1 do in these assays?
ClpP mod: -1.5%; gsp ag: -10%[15.4 µM]; gsp antagonist: 0%; PINK1 modulator: 0.5%; D2 ag: -1.3

This is a random part of the collection; about 5.1% have a hit in one of these screens.
